Screens: PubChem, several laboratories
PrP 5UTR inh – suppresses PrP 5' UTR mRNA reporter expression; inhibition, % (test concentration not listed); hit rate 0.35% among 340,000; AID 488862; cell-based PrP 5' UTR mRNA reporter, plate reader;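 active = every replicate at 50% or more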;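 note: 0 = median of the neutral control wells; tested in H4 reporter cells; numbers are from one replicate; inactives centre near -14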
BJeLR viability – BJeLR cell viability loss. BJeLR (HRASV12) viability, CellTiter-Glo ATP luminescence, 48 h; reference of the scale not given here. inhibition, % (no concentration beside the values). hit rate 0.17% among 300,000. AID 1554;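 active = replicate mean above 50%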;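 note: 50 nL library stock added to about 25 µL; numbers are from one replicate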
ugtP null kill – growth inhibition of S. aureus ugtP deletion strain. S. aureus RN4220 ugtP deletion, OD600 growth, 16 h; some inactives read as strong as hits. growth inhibition, % (concentration not given with the values). hit rate 0.54% among 330,000. AID 1259309;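 active = z-score under -3 and OD600 up to 0.15 on both plates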;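 note: plate controls were untreated wells for no effect and antibiotic for full effect; wells of about 80 µL received 100 nL stock; the first replicate is given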
RN4220 kill – kills Staphylococcus aureus RN4220 | S. aureus RN4220 growth, OD600, 16 h | inhibition, % (no concentration beside the values) | hit rate 0.33% among 330,000 | AID 1259311;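 active = z-score of -3 or lower and OD600 up to 0.18 on both plates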;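 note: plate controls were untreated cells for no effect and reference antibiotic for full effect; stock transfer was 100 nL into about 80 µL; one replicate is shown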
Autofluor counter – flagged as autofluorescent in microsphere protease counterscreen; compound autofluorescence counterscreen, microsphere flow cytometry; stronger effect = higher value; fluorescence intensity (test concentration not listed); hit rate 3.1% among 360,000; AID 624483;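 active = at least 3 SD above the mean of all compounds, about 16000 in these data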;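 note: 100 nL of 1 mM stock went into each well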
Mtb hypoxia rep – reduces hypoxia-regulated biosensor signal in M. tuberculosis; hit rate 0.1% among 300,000; M. tuberculosis hypoxia-regulated fluorescent reporter, fluorescence; AID 1159583; fluorescence inhibition, % (concentration not given with the values);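 active = 35 to 45% if threefold the growth effect, above 45% if 1.5-fold the growth effect; inactive = the rest, general growth blockers included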;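 note: wells of about 50 µL received 100 nL stock; 0% = vehicle wells and 100% = reference inhibitor wells; whole bacteria with a GFP reporter of the hypoxia response; strong numbers were not always called active; many hits fall short of the cut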
Mtb hypoxia rep growth – also measured in Mtb hypoxia rep; calls as there; growth inhibition, %; measured here: M. tuberculosis growth (absorbance);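 0% = vehicle and 100% = reference antibiotic; read after six days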
The depositor's hits bear a star; · = no result given.

SMILES | PrP 5UTR inh | BJeLR viability | ugtP null kill | RN4220 kill | Autofluor counter | Mtb hypoxia rep | Mtb hypoxia rep growth
CCOCC(=O)Nc1ccc(C(=O)Nc2ccccc2Cl)cc1 | · | 2.7 | 2.9 | 1.1 | · | 4.1 | -4.4
CCCOc1ccc(/C=N/NC(=O)C2CCCN2S(=O)(=O)c2ccc(Cl)cc2)cc1 (stereo not given) | -3.3 | -1.6 | · | · | 4821 | · | ·
CNC(=O)COc1coc(CN2CCN(c3ccc(OC)cc3)CC2)cc1=O | -9.1 | -0.9 | 3.4 | 2.8 | 2523 | 3.6 | 3.4
O=C(NCCN1CCOCC1)C1(C(F)(F)F)C/C(=C\Cc2ccccc2)CCCO1 (stereo not given) | 13.8 | -2.2 | · | · | 2881 | · | ·
CCOC(=O)c1c(C)n(C)c2ccc(OC)c([N+](=O)[O-])c12 | -26.8 | 6.8 | 9.8 | 1.0 | 2115 | 14.8 | 6.4
COc1ccc(C)cc1NC(=O)Nc1ccncc1 | -12.0 | 1.1 | -3.4 | -1.7 | 5723 | -0.4 | 15.2
C=CCn1c(O)c(C(C)=NCCCN2CCOCC2)c(=O)[nH]c1=O | -12.7 | -5.3 | 5.9 | 1.3 | 8205 | 6.9 | -2.5
Cc1ccc(CCNC(=O)CCCn2nc(C)c3c(C)n(-c4ccc(C)cc4)nc3c2=O)cc1 | -20.0 | -5.7 | -6.4 | 0.8 | 5817 | 1.1 | 2.4
O=C(C1Cc2ccccc2CN1C(=O)c1ccco1)N1CCN(c2ccccc2)CC1 (stereo not given) | -15.3 | · | 3.7 | 0.2 | 3023 | 2.4 | 3.4
O=C(COC(=O)c1cccc([N+](=O)[O-])c1)NC1CCCC1 | -37.5 | 2.8 | 2.0 | -0.9 | 3141 | -1.7 | -14.9
CCOC(=O)c1sc(NC(=O)CC)nc1C | -4.1 | -4.5 | 7.5 | 3.9 | 2290 | -3.5 | -1.4
CC(=O)Nc1ccc(NC(=O)CC23CC4CC(CC(C4)C2)C3)cc1 | 2.4 | 0.4 | -7.2 | -0.9 | 3044 | -15.5 | -10.3
COc1cc(/C=C(\C#N)C(=O)N2CCOCC2)ccc1OCc1ccccc1 | -65.6 | 1.4 | 11.6 | 1.0 | 4219 | 9.0 | 8.4
O=C(CCC(=O)N1CCC2(CC1)OCCO2)Nc1nnc(C(F)(F)F)s1 | -25.4 | -7.6 | 1.8 | 4.6 | 7607 | -6.0 | 6.0
O=C(Nc1ccc(S(=O)(=O)N2CCCC2)cc1)C1CCN(S(=O)(=O)c2ccc(F)cc2)CC1 | -5.7 | 2.8 | · | · | 6187 | · | ·
COC(=O)NN=Cc1cn(Cc2ccccc2F)c2ccccc12 | · | · | -1.1 | 0.4 | · | 3.7 | 2.1
O=C(O)c1cccc(NC(=S)NC(=O)c2cncc(Br)c2)c1 | -27.0 | 8.2 | 0.3 | 3.1 | · | 3.7 | -2.6
O=S(=O)(c1ccc(F)cc1)N1CCCN(Cc2c(F)cccc2F)CC1 | -9.0 | -0.7 | 17.7 | 5.0 | 3944 | 18.4 | 6.1
CCOC(=O)c1c(C)[nH]c(C)c1S(=O)(=O)N1c2ccccc2CC1C (stereo not given) | -15.8 | 2.0 | -9.3 | -0.6 | 4470 | -0.2 | -2.6
Cc1ccccc1NC(=O)Cc1nc(COC(=O)c2ccc(C(F)(F)F)cc2)cs1 | 7.6 | · | -3.0 | -0.4 | 8157 | -5.3 | -5.5
CC(C)c1cn(C2OC(COC(=O)c3ccccc3)C(OC(=O)c3ccccc3)C2OC(=O)c2ccccc2)c(=O)[nH]c1=O (stereo not given) | 0.4 | -5.8 | 6.1 | 3.8 | 4142 | -2.1 | -7.1
O=C(NCCN1C(=O)S/C(=C\c2cccc(Cl)c2Cl)C1=O)C1=COCCO1 | -29.6 | 2.8 | 13.0 | 7.3 | 4177 | -0.3 | -8.5
COc1ccc(N2CCN(CC(O)COC(C)(C)C)CC2)cc1 (stereo not given) | -10.0 | -18.1 | 1.4 | -0.2 | 4580 | -2.6 | -11.2
COc1ccccc1/C=N/NC(=O)COCC(=O)N/N=C/c1ccccc1OC | -1.8 | 2.9 | · | · | 3685 | · | ·
COc1ccc2c(c1)C1C(CO2)C(c2ccccc2)[C@]2(C)C(=O)Nc3cc(Cl)ccc3C(=O)N12 (stereo not given in full) | · | · | 7.9 | -10.0 | · | 1.3 | 10.7
COc1ccc(C=Nn2cnnc2)cc1Br | · | · | 6.9 | 1.1 | · | 4.2 | 3.5
O=C1c2cccc([N+](=O)[O-])c2C(=O)N1c1cccnc1 | -22.0 | -0.3 | 2.1 | 1.2 | 4319 | 4.4 | 3.1
COc1ccc(S(=O)(=O)N2CCN(C(=O)NC3CCCCC3)CC2)cc1 | -2.7 | 2.3 | 10.6 | -1.0 | 2460 | 6.7 | -0.5
CC1(C)N=C(N)N=C(N)N1c1ccc(C(=O)O)cc1 | · | 7.9 | 4.2 | 3.6 | · | 1.2 | -1.7
O=C(NCC1(O)CCCCC1)C1CCC(=O)N(Cc2cccc(C(F)(F)F)c2)C1 (stereo not given) | -24.3 | 8.9 | 4.5 | 1.3 | 6166 | 4.9 | -6.3
CCCN(C(=O)CCNC(=O)Cn1cnc2ccccc2c1=O)c1cccc(C)c1 | -15.7 | 3.1 | -3.3 | -1.7 | 3714 | -6.8 | 4.6
CC1(C)Cc2c(cnn2-c2ccc(F)cc2)C(NC(=O)c2ccoc2)C1 (stereo not given) | -1.2 | -2.4 | 7.2 | -0.3 | 4525 | 4.4 | 11.8
O=C(NC(CC1CCCCC1)C(=O)O)c1ccccc1 (stereo not given) | 2.6 | · | 0.1 | -0.2 | 2732 | 0.4 | 8.6
CC(NC(=O)c1ccc(N(C)C)cc1)C(c1cccs1)N1CCN(C)CC1 (stereo not given) | -35.2 | -2.5 | 5.8 | 3.1 | 7681 | 2.0 | 4.6
COc1cc(C(=O)Nc2ccc(OCC(=O)N3CCOCC3)cc2C)cc(OC)c1OC | -12.8 | 3.1 | 2.8 | -2.1 | 3530 | -7.4 | 0.6
COc1cc(C#N)ccc1OCC(=O)c1ccc2c(c1)OCCO2 | -21.7 | -9.6 | 2.7 | -0.7 | 8175 | 3.6 | 4.6
FC(F)(F)c1nnc2ccc(-n3ccnc3)nn12 | -39.9 | 3.5 | -18.1 | -0.7 | 4237 | -5.6 | 1.4
NCCCCC(N)c1nnc(C(CC(=O)O)NC(=O)C2CCNCC2)o1 (stereo not given) | · | · | 1.2 | 2.8 | · | 0.9 | 7.2
CC(C)CCN1CCN(Cc2nc3ccccc3s2)CC1CCO (stereo not given) | -15.0 | 1.6 | 3.6 | 3.3 | 4141 | -3.3 | -0.7
CCCC(CCC)C(=O)NCCN1CCOCC1 | -29.6 | -5.1 | 2.6 | 0.2 | 4929 | · | ·
O=C(NCc1ccccc1Cl)C1CCN(S(=O)(=O)N2CCCCCC2)CC1 | -2.3 | -2.0 | 19.6 | 1.3 | 17397* | 7.2 | 3.7
O=C(O)C1=CCC(c2ccc(Cl)cc2)N(S(=O)(=O)c2ccc(Cl)cc2)C1c1cccc(Cl)c1 (stereo not given) | · | · | 85.2 | 54.7 | · | 6.6 | 1.7
O=C(NCCCN=C1NS(=O)(=O)c2ccccc21)c1ccc(F)cc1 | -1.8 | 3.3 | -4.6 | 3.7 | 5317 | 8.3 | 5.8
CC(C)c1nnc(SCC(=O)NCCC2=CCCCC2)n1N | -7.0 | -11.7 | -3.4 | 0.7 | 10798 | -4.9 | -13.2
COc1ccc(C(C)=O)cc1CSc1nnc(Nc2ccccc2C)s1 | -19.5 | -1.7 | -5.9 | 9.7 | 2133 | 14.6 | 6.5
CCC(=O)c1c[nH]c(C(=O)NCc2cccs2)c1 | -21.3 | 7.2 | -1.1 | 3.6 | 4774 | 12.8 | 3.1
O=C(CCS(=O)(=O)c1ccccc1)Nc1nc2ccc(F)cc2s1 | 6.4 | -0.9 | -1.0 | 2.9 | 5248 | 2.1 | 5.4
CCCn1c(C)cc(C(=O)COc2ccc(C)nc2[N+](=O)[O-])c1C | -10.4 | 3.6 | 0.5 | 1.4 | 2457 | 5.0 | -1.2
CCc1cccc(N(CC(=O)NCc2ccc(F)cc2)C(=O)c2csnn2)c1 | -13.0 | 6.9 | -1.4 | -1.6 | 4763 | -0.9 | -0.5
Cc1ccc(CNc2ccc3c(c2)OCO3)cc1 | -57.2 | 14.8 | -12.0 | 13.0 | 15077 | 16.1 | 33.9
CCN1CCN(C(=O)CN(C)S(=O)(=O)c2ccc(Cl)cc2)CC1 | -24.5 | -0.1 | 9.1 | -0.1 | 16047 | 9.2 | 4.6
NC1=NC(=Nc2cccc(Cl)c2)c2ccccc21 | -18.1 | 2.0 | 1.6 | 2.2 | 2479 | 12.1 | 1.9
CC1(C)CC(=O)C=C(Nc2ccc([N+](=O)[O-])cc2)C1 | -28.1 | 3.3 | 3.7 | 3.7 | 3595 | 1.1 | 16.9
COc1ccc(-n2nc3c(c2NC(=O)C(C)Cl)CSC3)cc1 (stereo not given) | -12.6 | -0.3 | -3.9 | 4.3 | 5389 | 3.5 | 1.9
FC(F)(F)c1ccc(C2C3CN(Cc4ccc(-c5ccccc5)cc4)C(c4ccccc4)C34CC2(c2ccccc2)C4)cc1 (stereo not given) | · | · | -0.4 | 3.7 | · | 3.6 | 6.3
CCCCn1c(N)c(N(CCOC)C(=O)c2sc3cc(F)ccc3c2Cl)c(=O)[nH]c1=O | -20.1 | 7.6 | 13.6 | 0.4 | 5765 | 9.5 | 5.9
Cc1ccc(Cn2ccc(-c3cnc(-c4ccccc4)s3)n2)cc1 | -78.3 | 4.1 | 19.6 | -10.6 | 2285 | · | ·
COC(=O)[C@]1(C)N[C@H](CN(C)C(=O)Nc2ccc(C)cc2)[C@@H]2C(=O)N(Cc3ccccc3)C(=O)[C@@H]21 | 47.3 | · | 3.4 | 5.4 | 2836 | 0.5 | 1.1
O=C(Nc1nccs1)c1ccc2c(c1)C(=O)N(Cc1cccnc1)C2=O | -13.0 | 6.7 | -0.5 | 1.9 | 4932 | 8.9 | 8.3
COC(=O)c1cc(NC(=S)N2CCN(C(=O)C3CCCO3)CC2)cc(C(=O)OC)c1 (stereo not given) | -18.9 | 15.0 | 0.1 | 1.9 | 3876 | 5.1 | 9.0
New compounds follow.
SMILES | PrP 5UTR inh | BJeLR viability | ugtP null kill | RN4220 kill | Autofluor counter | Mtb hypoxia rep | Mtb hypoxia rep growth
COc1ccc(C2/C(=C(/O)c3ccc(Cl)cc3)C(=O)C(=O)N2CCN2CCOCC2)c(OC)c1 (stereo not given) | 63.2* | 11.1 | -0.8 | -0.2 | 2142 | · | ·
CCN(CC(=O)NCCCN1CCOCC1)S(=O)(=O)c1ccc(Cl)cc1 | -20.0 | 5.6 | 6.8 | 1.8 | 3654 | -6.1 | 0.6
Cn1c(=O)cc(SCC(=O)N2CCN(C3CCCCC3)CC2)c2ccccc21 | -11.4 | -10.4 | -6.1 | -1.9 | 3826 | -11.6 | 6.2
O=C1CCC/C(=N/Nc2ccc(Cl)cc2)C1 | -18.5 | 2.2 | · | · | 2950 | · | ·
COC(=O)c1cc(=O)[nH]c(SCc2cccc(C)c2)n1 | -15.2 | 9.3 | 9.8 | 5.1 | 5845 | 1.7 | 6.1
